Screening data (PubChem)
UUG_fidelity: alters start codon recognition fidelity in yeast; S. cerevisiae UUG-firefly luciferase reporter, luminescence/redox ratio; activity score, % at 18.7 µM; 350,000 compounds, 0.13% hits;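 active means replicate mean at a twofold rise or more, about +100% in these data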;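 further: firefly luciferase made from a UUG start codon reports start codon fidelity; reporter light over untreated wells divided by growth signal over untreated wells; some hits fall short of that in this replicate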
Starred values were filed as active, the others as inactive.

SMILES UUG_fidelity
C[C@@H]1CN([C@H](C)CO)C(=O)c2cccc(NS(=O)(=O)c3ccc(Cl)cc3)c2O[C@@H]1CN(C)C(=O)Nc1ccccc1 1
C[C@H](CO)N1C[C@H](C)[C@@H](CN(C)C(=O)Nc2ccc(F)cc2)Oc2ccc(NC(=O)Nc3ccccc3)cc2C1=O -4
CO[C@@H]1CN(C)C(=O)c2ccc(NC(=O)C3CC3)cc2OC[C@@H](C)N(C(=O)C2CCOCC2)C[C@@H]1C 3
CC(C)NC(=O)Nc1cccc2c1O[C@H](CN(C)C(=O)NC(C)C)[C@H](C)CN([C@H](C)CO)C2=O -17
COc1ccc(S(=O)(=O)Nc2ccc3c(c2)C(=O)N([C@H](C)CO)C[C@H](C)[C@@H](CN(C)Cc2ccc(C(F)(F)F)cc2)O3)cc1 4
C[C@@H]1CN([C@@H](C)CO)C(=O)c2cc(NS(=O)(=O)c3ccc(F)cc3)ccc2O[C@H]1CN(C)Cc1ccncc1 3
CO[C@@H]1CN(C)C(=O)c2ccc(NS(=O)(=O)c3cn(C)cn3)cc2OC[C@H](C)N(CCC(F)(F)F)C[C@@H]1C -14
CCCN1C[C@@H](C)[C@H](OC)CN(C)C(=O)c2cc(NC(=O)C3CC3)ccc2OC[C@@H]1C 5
O=C(C[C@@H]1C[C@@H]2c3cc(NC(=O)Nc4ccccc4)ccc3O[C@@H]2[C@H](CO)O1)NCC1CC1 -13
O=S(=O)(Cc1ccccc1)N1CCCCN2[C@@H](CO)[C@H](c3ccc(-c4ccc(F)cc4)cc3)[C@@H]2C1 0
CN(C[C@H]1N[C@@H](CO)[C@H]1c1ccc(C2=CCCCC2)cc1)S(C)(=O)=O -25
CCCN1C[C@@H](C)[C@H](OC)CN(C)C(=O)c2ccc(NC(=O)c3ccccc3)cc2OC[C@@H]1C -5
C[C@H]1CN([C@@H](C)CO)C(=O)Cc2cc(NC(=O)Nc3ccc(F)cc3)ccc2O[C@@H]1CN(C)C -6
CCC(=O)N(C)C[C@H]1[C@@H](c2ccc(C3=CCCCC3)cc2)[C@@H](CO)N1C(=O)CC 2
COc1ccc(NC(=O)Nc2ccc3c(c2)C(=O)N([C@@H](C)CO)C[C@H](C)[C@@H](CN(C)Cc2ccc(Cl)c(Cl)c2)O3)cc1 -4
CN1CCCCN2[C@H](CO)[C@@H](c3ccc(-c4ccc(F)cc4)cc3)[C@@H]2C1 -7
CC(C)NC(=O)N(C)C[C@H]1Oc2c(NC(=O)Nc3ccc(F)cc3)cccc2C(=O)N([C@H](C)CO)C[C@@H]1C 2
O=C(NC[C@H]1[C@H](c2ccccc2)[C@H](CO)N1CC1CCCC1)c1cccnc1 -6
CN1c2ccc(-c3cccc(F)c3)cc2[C@H]2[C@H](CCN2C(=O)c2ccccc2F)[C@@H]1CO 1
CC(=O)NC[C@H]1[C@@H](c2ccc(-c3cccnc3)cc2)[C@H](CO)N1C(=O)C1CCC1 -12
COc1cccc(S(=O)(=O)Nc2ccc3c(c2)C(=O)N(C)[C@@H]2CC[C@@H](CC(=O)NCC4CCCCC4)O[C@H]2CO3)c1 -15
C[C@@H]1CN([C@@H](C)CO)C(=O)c2cc(NC(=O)Nc3ccc4c(c3)OCO4)ccc2O[C@@H]1CN(C)Cc1ccc(C(=O)O)cc1 10
Cc1noc(C)c1NC(=O)N(C)C[C@@H]1Oc2ccc(NC(=O)NC3CCCCC3)cc2C(=O)N([C@H](C)CO)C[C@@H]1C -11
C[C@@H]1CN([C@@H](C)CO)C(=O)c2cc(NC(=O)c3ccncc3)ccc2O[C@@H]1CN(C)C(=O)NC1CCCCC1 -8
CC(C)C#Cc1ccc([C@@H]2[C@H]3CN(C(=O)c4ccc(F)cc4)CCCCN3[C@H]2CO)cc1 3
C[C@H]1CN([C@@H](C)CO)C(=O)c2cc(NS(=O)(=O)c3cccs3)ccc2O[C@H]1CN(C)Cc1ccc(-c2ccccc2)cc1 12
O=C(Nc1ccccc1F)N1C[C@H]2[C@@H](c3ccccc31)[C@@H](CO)N2C(=O)Cc1cccnc1 -6
CCCNC(=O)N1[C@H](CO)[C@@H]2c3ccccc3N(C(=O)c3ccccc3)C[C@@H]21 -4
CCCNC(=O)Nc1ccc2c(c1)OC[C@H](C)N(Cc1ccccn1)C[C@@H](C)[C@@H](OC)CN(C)C2=O -18
COCC(=O)NC[C@H]1[C@@H](c2ccccc2)[C@@H](CO)N1C(=O)c1ccccc1 11
COc1cccc(S(=O)(=O)N2CC[C@@H]3[C@H]2c2cc(-c4ccc(C#N)cc4)ccc2N[C@@H]3CO)c1 -8
C[C@@H]1CN([C@@H](C)CO)C(=O)c2cccc(NC(=O)c3nc4ccccc4s3)c2O[C@H]1CN(C)C(=O)Nc1ccc(C(F)(F)F)cc1 -14
CO[C@H]1CN(C)C(=O)c2cc(NS(C)(=O)=O)ccc2OC[C@@H](C)N(CCC(F)(F)F)C[C@H]1C 8
CCCNC(=O)Nc1ccc2c(c1)C(=O)N(C)C[C@@H](OC)[C@@H](C)CN(C(=O)C1CC1)[C@H](C)CO2 -12
Cc1noc(C)c1NC(=O)Nc1ccc2c(c1)CC(=O)N([C@H](C)CO)C[C@H](C)[C@H](CN(C)Cc1ccncc1)O2 -5
C[C@@H]1CN([C@H](C)CO)C(=O)c2cc(NC(=O)Nc3cccc4ccccc34)ccc2O[C@H]1CN(C)C(=O)Nc1ccccc1 2

Of the compounds above, 2 have a Cl atom.
SMILES UUG_fidelity
C[C@@H]1CN([C@H](C)CO)C(=O)c2cccc(NS(=O)(=O)c3ccc(Cl)cc3)c2O[C@@H]1CN(C)C(=O)Nc1ccccc1 1
COc1ccc(NC(=O)Nc2ccc3c(c2)C(=O)N([C@@H](C)CO)C[C@H](C)[C@@H](CN(C)Cc2ccc(Cl)c(Cl)c2)O3)cc1 -4

An excerpt from above in order of heavy-atom count, lowest first:
SMILES UUG_fidelity
CN1CCCCN2[C@H](CO)[C@@H](c3ccc(-c4ccc(F)cc4)cc3)[C@@H]2C1 -7
C[C@@H]1CN([C@@H](C)CO)C(=O)c2cc(NC(=O)c3ccncc3)ccc2O[C@@H]1CN(C)C(=O)NC1CCCCC1 -8
Cc1noc(C)c1NC(=O)Nc1ccc2c(c1)CC(=O)N([C@H](C)CO)C[C@H](C)[C@H](CN(C)Cc1ccncc1)O2 -5
Cc1noc(C)c1NC(=O)N(C)C[C@@H]1Oc2ccc(NC(=O)NC3CCCCC3)cc2C(=O)N([C@H](C)CO)C[C@@H]1C -11
C[C@@H]1CN([C@@H](C)CO)C(=O)c2cccc(NC(=O)c3nc4ccccc4s3)c2O[C@H]1CN(C)C(=O)Nc1ccc(C(F)(F)F)cc1 -14

(list continues)
SMILES UUG_fidelity
CC(C)NC[C@H]1[C@@H](c2ccc(-c3ccccc3)cc2)[C@@H](CO)N1CC1CC1 -3
COCC(=O)Nc1ccc2c(c1)[C@H]1C[C@H](CC(=O)OC)O[C@H](CO)[C@H]1O2 -15
COc1ccc(S(=O)(=O)N(C)C[C@@H]2OCc3ccccc3-c3c(n(C)c4ccccc34)C(=O)N([C@@H](C)CO)C[C@H]2C)cc1 6
O=C(c1cccnc1)N1CCCCN2[C@H](CO)[C@H](c3ccc(C#Cc4cccnc4)cc3)[C@@H]2C1 -8
O=C([C@H]1[C@H](CO)[C@H]2Cn3c(ccc(-c4ccncc4)c3=O)[C@@H]1N2Cc1cccnc1)N1CCOCC1 -8
C[C@@H]1CN([C@@H](C)CO)C(=O)c2cc(NC(=O)Nc3ccc(F)cc3)ccc2O[C@@H]1CN(C)C(=O)Nc1cccc2ccccc12 -9
Cc1cccc(S(=O)(=O)N2C[C@@H](O)COC[C@@H]3O[C@@H](CC(=O)NCCCN4CCOCC4)CC[C@H]32)c1 -11
COCC(=O)N(C[C@@H]1N[C@@H](CO)[C@@H]1c1ccc(C2=CCCCC2)cc1)C(C)C 5
Cn1cnc(S(=O)(=O)N2CC[C@H]3[C@H](CO)Nc4ccc(-c5cccc(F)c5)cc4[C@H]32)c1 -6
O=C(CC(F)(F)F)N1C[C@H]2[C@@H](c3ccccc31)[C@H](CO)N2Cc1cccnc1 10
COc1ccc(CN(C)C[C@@H]2Oc3c(NC(=O)Nc4cccc5ccccc45)cccc3C(=O)N([C@@H](C)CO)C[C@@H]2C)cc1 10
CO[C@H]1CN(C)C(=O)c2ccc(NC(=O)Nc3cccc(Cl)c3)cc2OC[C@@H](C)N(C(=O)Nc2c(C)noc2C)C[C@H]1C -6
O=C(CN1CCOCC1)N1CCCCN2[C@H](CO)[C@@H](c3ccc(Br)cc3)[C@H]2C1 -5
O=C(Nc1ccccc1)N1CCCCN2[C@H](CO)[C@H](c3ccc(-c4ccncc4)cc3)[C@@H]2C1 1
C[C@@H]1CN([C@H](C)CO)C(=O)c2cc(NC(=O)Nc3cccc4ccccc34)ccc2O[C@H]1CN(C)CC1CCCCC1 11
CN1C(=O)c2cc(NS(=O)(=O)c3ccc(Cl)cc3)ccc2OC[C@@H]2O[C@@H](CC(=O)O)CC[C@@H]21 14
CO[C@H]1CN(C)C(=O)c2cc(NC(=O)C3CCCCC3)ccc2OC[C@H](C)N(C)C[C@H]1C -10
C[C@H]1CN([C@@H](C)CO)C(=O)c2cc(NC(=O)CCC(F)(F)F)ccc2O[C@H]1CN(C)S(=O)(=O)c1cn(C)cn1 4
COCC(=O)Nc1ccc2c(c1)C(=O)N(C)C[C@@H](OC)[C@H](C)CN(C(=O)NC(C)C)[C@@H](C)CO2 -4
N#Cc1ccc(-c2ccc3c(c2)[C@@H]2[C@@H](CCN2S(=O)(=O)c2cccc(F)c2)[C@H](CO)N3)cc1 -4
CO[C@H]1CN(C)C(=O)c2cc(NC(=O)Nc3ccccc3)ccc2OC[C@H](C)N(C(=O)Nc2c(C)noc2C)C[C@@H]1C 27
CS(=O)(=O)N(CC1CCC1)C[C@@H]1N[C@@H](CO)[C@@H]1c1ccccc1 -13
Cc1ccc(S(=O)(=O)N(C)C[C@H]2Oc3ccc(NC(=O)CCCN(C)C)cc3CC(=O)N([C@@H](C)CO)C[C@H]2C)cc1 1
C[C@@H]1CN([C@@H](C)CO)C(=O)c2cc(NS(=O)(=O)c3cccs3)ccc2O[C@@H]1CN(C)S(C)(=O)=O -4
C[C@@H]1CN([C@@H](C)CO)C(=O)c2ccccc2-c2ccccc2CO[C@H]1CN(C)C(=O)Oc1ccccc1 73
COCC(=O)N(C[C@@H]1N[C@@H](CO)[C@@H]1c1ccc(-c2ccccc2)cc1)C(C)C 13
O=C(Cc1ccccc1)N1C[C@@H]2[C@H](c3ccccc31)[C@@H](CO)N2C(=O)c1cccc(F)c1 8
COc1ccc(NC(=O)N(C)C[C@H]2Oc3c(NC(=O)Nc4c(C)noc4C)cccc3C(=O)N([C@@H](C)CO)C[C@H]2C)cc1 8
COCC(=O)N1[C@H](CO)[C@@H](c2ccccc2)[C@@H]1CN(C)C(=O)c1cccnc1 4
COCCNC(=O)C[C@@H]1CC[C@H]2[C@@H](COc3ccc(NC(=O)c4cc(C)on4)cc3C(=O)N2C)O1 -15
CNC[C@H]1Oc2c(NC(=O)c3cc(C)nn3C)cccc2C(=O)N([C@@H](C)CO)C[C@H]1C -7
Cc1ccccc1S(=O)(=O)N1CCCCN2[C@@H](CO)[C@@H](c3ccc(-c4ccccc4)cc3)[C@@H]2C1 11
COc1ccc(S(=O)(=O)Nc2ccc3c(c2)CC(=O)N([C@@H](C)CO)C[C@@H](C)[C@@H](CN(C)C)O3)cc1 -13
COc1ccccc1NC(=O)N1C[C@@H]2[C@H](c3ccccc31)[C@H](CO)N2C(=O)C1CC1 46
CC(=O)N1CCCCN2[C@@H](CO)[C@@H](c3ccc(Br)cc3)[C@@H]2C1 16
CO[C@H]1CN(C)C(=O)c2cc(NC(=O)c3cc(C)on3)ccc2OC[C@@H](C)N(C(=O)C2CC2)C[C@@H]1C 7
CN1[C@@H]2c3ccc(-c4cccc(F)c4)c(=O)n3C[C@@H]2[C@@H](CO)[C@@H]1C(=O)NC1CCCCC1 10
CCNC(=O)Nc1ccc2c(c1)C(=O)N(C)[C@H]1CC[C@@H](CC(=O)NC3CCCCC3)O[C@@H]1CO2 9
O=S(=O)(c1ccc(F)cc1)N1CCCCN2[C@H](CO)[C@H](c3ccc(-c4cncnc4)cc3)[C@@H]2C1 -3
C[C@@H]1CN([C@H](C)CO)C(=O)c2ccccc2-c2ccccc2CO[C@@H]1CN(C)Cc1ccc(C(=O)O)cc1 -12
CC(C)NC(=O)Nc1ccc2c(c1)CC(=O)N([C@@H](C)CO)C[C@H](C)[C@@H](CN(C)C(=O)NC(C)C)O2 -5
C[C@@H]1CN([C@H](C)CO)C(=O)c2cccc(NS(C)(=O)=O)c2O[C@H]1CN(C)Cc1ccc(C(=O)O)cc1 -6
C[C@@H]1CN([C@@H](C)CO)C(=O)Cc2cc(NS(=O)(=O)c3ccccc3)ccc2O[C@H]1CN(C)Cc1ccc(C(F)(F)F)cc1 159*
O=C(c1ccncc1)N1C[C@@H]2[C@H](c3ccccc31)[C@@H](CO)N2C(=O)c1ccccn1 -14
C[C@H](CO)N1C[C@H](C)[C@@H](CN(C)S(=O)(=O)c2ccc(Cl)cc2)Oc2ccc(NC(=O)C3CC3)cc2CC1=O 4
O=C(CC(F)(F)F)N1C[C@@H]2[C@H](c3ccccc31)[C@@H](CO)N2C(=O)C1CC1 36
O=C(Nc1ccccc1)N1CCCCN2[C@@H](CO)[C@@H](c3ccc(-c4ccccc4F)cc3)[C@@H]2C1 16
O=C(C[C@@H]1CC[C@@H]2[C@H](COC[C@H](O)CN2Cc2cc(F)cc(F)c2)O1)NCc1cccc(F)c1 -13
CCC(=O)N1C[C@@H](C)[C@@H](OC)CN(C)C(=O)c2ccc(NC(=O)Nc3ccccc3)cc2OC[C@@H]1C -1
CO[C@@H]1CN(C)C(=O)c2cc(NS(C)(=O)=O)ccc2OC[C@H](C)N(C(=O)C2CC2)C[C@@H]1C 7
Cc1ccc(-c2ccc([C@@H]3[C@@H](CO)N4CCCCN(S(=O)(=O)c5cccc(C)c5)C[C@H]34)cc2)cc1 -8
CC(=O)NC[C@H]1[C@@H](c2ccc(-c3cccc(F)c3)cc2)[C@@H](CO)N1C(C)=O -6
CO[C@@H]1CN(C)C(=O)c2ccc(NC(=O)c3ccccc3)cc2OC[C@H](C)NC[C@H]1C 6
C[C@H]1CN([C@@H](C)CO)C(=O)Cc2cc(NC(=O)Cc3cn(C)c4ccccc34)ccc2O[C@@H]1CN(C)C -6

Some of the compounds tested; rates above refer to the full screens.
